Screens: PubChem, PCMD
Biofilm kill mix: clotrimazole potentiators killing C. albicans biofilm, primary screen, 4-compound mixtures; C. albicans biofilm persisters + clotrimazole, fluorescence viability; primary screen in compound mixtures of four per well; inhibition, % at 7.6 µM; AID 1242, 2008; 120,000 compounds, 0.02% hits;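 active means inhibition above 30.3% in the primary screen of four-compound pools, then above 30% when the compound was retested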;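 further: compounds exposed to preformed 24 h biofilms for 48 h; the number belongs to the whole pool; some results filed as inactive read as strong as hits; inactives centre near 12; 0% = biofilm with clotrimazole alone and 100% = kill control; retested singly at about 60 µM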
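System: C. albicans CAF4-2 wild-type biofilms; Medium: RPMI/MOPS medium, pH 7.0; Reagent: Clotrimazole, 50 µg/mL; Times: biofilm formation 24 h, compound exposure 48 h, 37 °C; Detection: 2-h Alamar Blue fluorescence, 535/590 nm excitation/emission; Evaluation: percent inhibition of biofilm viability.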
An asterisk follows results filed as active. An excerpt; rates above refer to the full screens.

canonical_smiles | Biofilm kill mix
Cc1ccc(Nc2c(-c3ccc(C)o3)nc3ncccn23)cc1 | 5.1
Cc1nnc(SCCCCSc2nnc(C)c(=O)[nH]2)[nH]c1=O | 14.1
CC(C)C(NC(=O)CNC(=O)OC(C)(C)C)C(=O)NCc1ccc(Cl)cc1 (stereo not given) | 4.4
COc1ccc(OCC(=O)N/N=C(\C)c2cccs2)cc1 | 15.2
NC(=O)c1cccc(N=Cc2cc(Cl)cc(Cl)c2O)c1 | 17.5
Cc1c(Cl)cccc1NC(=S)N(CCN(C)C)C(C)c1ccco1 (stereo not given) | 25.6
CC1CCN(C(=S)c2cn(Cc3cccc(F)c3)c3ccccc23)CC1 | 18.8
O=C(CC1S/C(=N/N=C/c2cccnc2)NC1=O)Nc1ccccc1 (stereo not given) | -1.7
CC(=O)N[C@@H](Cc1c[nH]c2ccccc12)C(=O)OCC(=O)Nc1ccc(S(=O)(=O)N(C)C)cc1 | 4.0
COc1cc(/C=N/NC(=O)C2COc3ccccc3O2)ccc1O (stereo not given) | 20.4
COc1ccc(C2CC(c3ccccc3)=NN2C(=O)COC(=O)c2cccc(S(=O)(=O)N(C)C)c2)cc1 (stereo not given) | 3.9
CCOc1cc(N2CCOCC2)c(OCC)cc1NC(=O)c1ccc(OC)cc1 | 21.1
CCN(CC)C(=O)c1sc(NC(=O)c2ccncc2)c(C(=O)OC)c1C | 10.3
O=C(CSc1ccc(-c2ccc(F)cc2)nn1)N1CCN(c2ccccc2)CC1 | -0.6
O=C(NC1CCCCC1)C(=O)c1c(-c2ccccc2)[nH]c2ccccc12 | 11.9
CC(=O)NCCc1nc2ccccc2n1CCOc1cccc(C)c1 | 11.3
CCOCCn1c(C(C)O)nc2ccccc21 (stereo not given) | 12.9
CCCOc1ccc(Cc2c(Cl)nc(SC)nc2NC)cc1 | 24.8
O=C(c1ccc(Cl)cc1)C1CCCN(C(=O)/C=C/c2ccccn2)C1 (stereo not given) | -4.2
Cc1ccc(NS(=O)(=O)c2ccc(NC(=O)C(C)Sc3ccc(Cl)cc3)cc2)c(C)c1 (stereo not given) | 5.3
Cc1ccc(C2=Nc3c(ccc4ccccc34)C(c3ccncc3)=NN2)cc1 | -7.8
NNC(=S)Nc1ccc(C(F)(F)F)cc1Cl | 14.5
CCC(=O)NC(=S)Nc1ccc(-c2nc3ccc(C)cc3s2)cc1 | 11.3
Cc1cc(Cc2cc(C)c(N)cc2C)c(C)cc1N | -1.8
c1ccc(Nc2ccc3c4c(cccc24)CC3)cc1 | 2.5
FC(F)c1nc2ccccc2[nH]1 | 3.8
COc1cc(OC)c(OC)cc1/C=C/C(=O)c1ccc(NS(=O)(=O)c2ccc(C)cc2)cc1 | 12.8
CC(C)(C)OC(=O)N1CCCN(C(=O)Nc2ccc(C(F)(F)F)cc2)CC1 | 14.0
CCC(Cc1ccccc1)NCc1c(C(=O)O)c(C)n(Cc2ccccc2)c1C (stereo not given) | 14.3
COc1ccc(/C=C/C(=O)OCC(=O)N2CC(=O)Nc3ccccc32)cc1S(=O)(=O)N1CCOCC1 | 23.3
Cc1cc(C(=O)C(=O)O)c(C)n1-c1ccc(Cl)cc1 | 19.1
COc1ccc(-n2nnc3c(=O)n(CC(=O)Nc4cc(C)on4)cnc32)cc1OC | 17.1
CCCCOc1cccc(C(=O)NC(=S)Nc2cccnc2)c1 | 11.9
CCOC(=O)c1sc(=NC(=O)CCS(=O)(=O)c2ccccc2)n(C)c1C | 7.3
Cc1ccc(/C=C2\SC(=S)N(CCC(=O)NNC(=O)c3ccncc3)C2=O)cc1 | 5.5
O=C(Nc1ccc(N2CCN(C(=O)c3ccco3)CC2)c(Cl)c1)c1cccnc1 | 5.3
CSc1ncccc1C(=O)OCc1ccc([N+](=O)[O-])cc1 | 17.6
Cc1nc2c(=O)[nH]c(=S)n(C)c2nc1C | 14.5
C/C(=N\Nc1cc(C)nc(NCc2ccccc2)n1)c1ccc([N+](=O)[O-])cc1 | 21.1
CCOC(=O)C1(Cc2cccc(Cl)c2)CCCN(C2CCN(C(C)=O)CC2)C1 (stereo not given) | 8.4
CC(=O)Nc1ccc(S(=O)(=O)Nc2cccc3[nH]ncc23)cc1 | 6.8
CCOC(=O)CSc1nc2ccc(NC(=O)CSc3nnnn3Cc3ccccc3)cc2s1 | 7.4
COC(=O)c1nn(-c2ccc(C)cc2)ccc1=O | -7.8
Cc1c(NC=C(C#N)C#N)c(=O)n(-c2ccccc2)n1C | 2.1
Cc1nn2c(-c3cccnc3)ccnc2c1-c1ccccc1 | 7.5
CS(=O)(=O)c1ccc2nc(NC(=O)c3cccc(NS(=O)(=O)c4ccc(F)c(F)c4)c3)sc2c1 | 8.9
CCC(CC)C(=O)Nc1cc([N+](=O)[O-])ccc1Cl | 10.2
Cc1ccc2nc(NC(=O)C3CC(=O)N(Cc4ccco4)C3)sc2c1 (stereo not given) | 9.9
CCn1c(SCC(=O)NNC(=O)c2ccc(OC)cc2)nnc1-c1cccnc1 | 12.9
COCCNC(=O)C(c1ccc(F)cc1)N(C(=O)CCC(=O)Nc1nccs1)c1cccc(C)c1 (stereo not given) | 5.7
O=C(NNS(=O)(=O)c1ccccc1)c1csc(-c2cccnc2)n1 | 14.9
Cc1ccc(-n2c(-c3cn(C)nc3C)n[nH]c2=S)cc1 | 13.5
CCSc1nnc(CNC(=O)C23CC4CC(CC(C4)C2)C3)n1Cc1ccccc1 | 6.1
COc1ccc(CC(=O)NNC(=O)c2cccs2)cc1OC | 15.9
O=C(/C=C/c1cccs1)NC(=S)Nc1ccc(S(=O)(=O)Nc2ccccc2C(F)(F)F)cc1 | 19.1
CCc1ccc(/C=C(\C)C(=O)c2c(C)cc(C)[nH]c2=O)cc1 | -4.8
CN1CCC(C(=O)N2CCCC(C(=O)c3ccc4c5c(cccc35)CC4)C2)CC1 (stereo not given) | 16.5
CC1CC2=C(NC(=S)NC2c2cccc(F)c2)/C(=C/c2cccc(F)c2)C1 (stereo not given) | -0.7
Cc1cc2n(n1)SC(Nc1ccc(F)cc1)N2 (stereo not given) | 6.9
O=C(N=Nc1c(O)n(Cc2ccccc2)c2ccccc12)c1ccc(O)cc1 | 19.4

The list goes on.
molecule	Biofilm kill mix
Clc1ccccc1-c1nc2ccccc2[nH]1	5.6
CCN(CC)C(=O)C[n+]1cccc(C(N)=O)c1	11.8
CC(C)CC(=O)Nc1ccc(-c2nc3ccccc3c(=O)[nH]2)cc1	14.5
COc1ccccc1NC(=S)N(C(C)C)C(C)c1ccccn1 (stereo not given)	7.6
c1ccc(-c2ccc(C(c3ccccc3)n3ccnc3)cc2)cc1 (stereo not given)	-4.8
O=C(O)c1cc(Br)ccn1	16.6
COc1ccc(CCNS(=O)(=O)c2cc(/C=C/C(=O)O)ccc2C)cc1OC	0.0
CC1CCN(CC(=O)Nc2ccc(Cl)cc2[N+](=O)[O-])CC1	17.6
COCCN(C(=O)c1cc(OC)c(OC)c(OC)c1)c1c(N)n(Cc2ccccc2)c(=O)[nH]c1=O	7.5
Nc1ncnc2c1ncn2C1OC(CO)C(O)C1N (stereo not given)	16.3
CCCCN(C(=O)c1ccc(S(=O)(=O)N(C)C)cc1)c1nc2ccccc2s1	14.0
O=C(/C=C/c1ccco1)OCc1nnc(-c2ccc(Cl)cc2)o1	-3.0
CC(C)C(=O)NCCc1nc2ccccc2n1CCc1ccccc1	10.5
CCCC(=O)Nc1cc(OC)c(C(=O)OC)cc1Cl	2.2
Cc1cc(=O)n2c3ccccc3n(CC(O)CN3CCC(C)CC3)c2c1C#N (stereo not given)	4.0
O=C(OCc1nnn(Cc2ccccc2)c1-c1c(COC(=O)c2ccccc2)nnn1Cc1ccccc1)c1ccccc1	15.2
Cc1cccc(-n2cc(CNCCN3CCOC3=O)c(-c3cccc(F)c3)n2)c1	8.6
NCCCC[C@H]1CNC(=S)N1CCCCC1CCCCC1	16.9
COCCOc1cc2ncnc(N3CCC(C(=O)O)CC3)c2cc1OCCOC	17.3
CC(Oc1ccc(Cl)cc1)C(=O)N/N=C/c1ccsc1 (stereo not given)	21.2
O=C(O)c1ccc(-c2ccc(/C=C3\NC(=O)N(Cc4ccc(Cl)cc4)C3=O)o2)cc1Cl	29.5
CCCCOc1ccc(C2NC(=O)NC(C)=C2C(C)=O)cc1OCC (stereo not given)	-1.3
O=C(O)c1ccc(O)c(N2C(=O)Nc3ccccc3N2O)c1	3.5
O=[N+]([O-])c1ccc(C2CC(c3ccccc3)=Nc3ccccc3S2)cc1 (stereo not given)	10.4
N[C@@H](C(=O)N[C@@H]1C(=O)N2C(C(=O)O)=C(Cl)CS[C@H]12)c1ccccc1	4.0
O=C(/C=C/c1ccco1)NCC1OCCc2ccccc21 (stereo not given)	14.8
CC(C)CCOc1ccc(C2=NNC(=O)CC2)cc1	18.8
CC(=O)NC1C(OCc2cccc(Br)c2)OC(COC(C)=O)C(OC(C)=O)C1OC(C)=O (stereo not given)	13.4
Cc1cc(C)n(CCN(C)c2nc3nonc3nc2NC2CC2)n1	9.9
Cc1ccc(NC(=O)Nc2ccccc2C(N)=O)cc1	18.0
O=C(c1cccs1)N1CCC2(O)CCCCC2C1c1ccc(F)cc1 (stereo not given)	-3.7
COc1cccc(NC(=O)CN2C(=O)C(c3ccc(C)cc3)=NC23CCCCCC3)c1	17.7
C/C(=N\NC(=O)C1=NNC(=O)C1C)c1cccs1 (stereo not given)	19.0
O=C1/C(=C/c2ccc([N+](=O)[O-])cc2)CCc2ccccc21	15.8
NC(=O)c1ccccc1NC(=S)NC(=O)c1ccc(Br)o1	8.0
Cc1ccc(C(=O)N/N=C\c2ccc(-c3ccc(Cl)cc3)o2)cn1	13.0
COc1cc(OC)nc(NC(=S)NC(=O)c2ccccc2)n1	10.7
COc1ncccc1-c1nnn(-c2ccc(Cl)nc2)n1	18.7
COC(=O)c1cc(C(=O)Nc2ccc(Cl)cn2)cc([N+](=O)[O-])c1	19.2
CCOc1ncccc1C(=O)OCC(=O)c1ccc(C)c(C)c1	10.4
Cc1nnc(SCC(=O)NC(C)(C)C)n1NCc1ccc(Cl)cc1	-6.7
CCOC(=O)NC1=NCC(C)S1 (stereo not given)	12.9
c1ccc(Cn2cc(CN3CCCO3)c(-c3ccc4c(c3)OCO4)n2)cc1	9.3
CCOc1cc2[nH]c(=O)n(CCCC(=O)N(C)Cc3ccccc3)c(=O)c2cc1OCC	15.4
O=C(O)CC/C(=N/Nc1ccc([N+](=O)[O-])cc1)C(=O)O	5.5
Cc1ccnc(SCC(=O)c2ccc([N+](=O)[O-])cc2)n1	21.8
Cc1ccc(NC(=S)N2CCCC(c3nc4ccccc4[nH]3)C2)cc1 (stereo not given)	-5.5
COc1ccc(C2C3=C(CC(C)(C)CC3=O)N(C)C3=C2C(=O)CC(C)(C)C3)cc1	20.5
CSc1sc(C(=O)NC(=O)NCc2cccnc2)c(C)c1-c1ccon1	18.3
NC(CO)C12CC3CC(CC(C3)C1)C2 (stereo not given)	28.9

Part of the list above in order of length of the SMILES, ascending.
molecule	Biofilm kill mix
CC(C)CCOc1ccc(C2=NNC(=O)CC2)cc1	18.8
Cc1ccc(NC(=O)Nc2ccccc2C(N)=O)cc1	18.0
O=C(/C=C/c1ccco1)NCC1OCCc2ccccc21 (stereo not given)	14.8
NC(=O)c1ccccc1NC(=S)NC(=O)c1ccc(Br)o1	8.0

More structures follow:
molecule	Biofilm kill mix
Cn1c(=NC(=O)C(C)(C)C)sc2cccc(F)c21	30.5
NS(=O)(=O)c1cnccc1Nc1ccc(Cl)c(Cl)c1	10.4
C[n+]1cccc2cccc([O-])c21	9.5
O=C(O)C1CC(O)CN1c1nc(Cl)ccc1[N+](=O)[O-] (stereo not given)	15.3
Cc1nn(-c2ccc(F)cc2)c(Cl)c1/C=C1\C(=O)Nc2ccccc21	9.7
Cc1nc(NC(=O)CSc2nnnn2C)sc1C	14.6
CCOC(=O)c1ccc(NC(=O)N2CCN(c3cccc(OC)c3)CC2)cc1	16.2
CCC1=C(OC(=O)N(CC)CC)N2C(=O)OC(=NCCc3c[nH]c4ccccc34)[C@]2(C)[C@H]2C1=CC[C@H]1C(=O)NC(=O)[C@H]12	-0.7
O=C(NCC(c1ccco1)N1CCN(c2ccc(F)cc2)CC1)OCc1ccccc1 (stereo not given)	-0.9
CCOc1cc2c(cc1OC)C(c1cccc([N+](=O)[O-])c1)NCC2 (stereo not given)	12.1
COC(=O)[C@@H]1C[C@@]2(O)[C@H](O)[C@H](O)[C@H](O)C[C@H]2N1C/C=C/c1ccccc1	16.6
CC(=O)C1=C(O)CC(c2ccccc2)CC1=NCCc1ccccc1 (stereo not given)	13.3
O=C(O)CCC(=O)N1CN2CN(C(=O)CCC(=O)O)CC([N+](=O)[O-])(C2)C1	5.3
O=C(Cn1cncn1)c1ccc(F)cc1F	8.4
O=C(O)C1C2CC3C(OC(=O)C31)C2Cl (stereo not given)	5.3
CC(C)N1CCN(Cc2coc3ccccc3c2=O)CC1CCO (stereo not given)	8.2
Cc1cccc(NC(=O)c2ccc([N+](=O)[O-])o2)c1C	18.9
CCN(CC)CCn1c(N)cc(=O)[nH]c1=O	13.3
Nc1cc(C(=O)OCC(=O)NC(c2ccccc2)c2ccccc2)ccc1Cl	5.3

A stretch from further up, for reference:
molecule	Biofilm kill mix
Cn1c(=NC(=O)C(C)(C)C)sc2cccc(F)c21	30.5
NS(=O)(=O)c1cnccc1Nc1ccc(Cl)c(Cl)c1	10.4
C[n+]1cccc2cccc([O-])c21	9.5
O=C(O)C1CC(O)CN1c1nc(Cl)ccc1[N+](=O)[O-] (stereo not given)	15.3
Cc1nn(-c2ccc(F)cc2)c(Cl)c1/C=C1\C(=O)Nc2ccccc21	9.7
